Bioassay records as filed in PubChem.
Vaccinia stage = blocks a specific stage of Vaccinia orthopoxvirus infection. activity change (mCherry), % (test concentration not listed). Vaccinia-infected cells, mCherry/Venus stage reporter fluorescence; active compounds read low; some inactives read as strong as hits. 0.01% of 89,000 active;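 active = mCherry past -33% and 40 or more points under the early reporter, replicates agreeing; inconclusive = past -33% without that gap or agreement; tested in A549 cells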;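 also: scaled between vehicle wells and reference inhibitor wells; 23 nL library stock went into each well; one replicate is shown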
Vaccinia stage Venus = second read-out of Vaccinia stage, no call of its own (marks repeat the call); activity change (Venus), %; measured here: Venus reporter, other viral stage;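 negative = less Venus signal; first of two replicates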
The depositor's hits bear a star; & = joins results of further samples. The list is partial, so the mix of outcomes need not match the whole.

For C/C=C/c1ccc2c(c1)O[C@H](CN(C)C(=O)Cc1ccccn1)[C@H](C)CN([C@H](C)CO)S2(=O)=O the results were Vaccinia stage 22 and Vaccinia stage Venus 13.
Screening COc1ccccc1S(=O)(=O)N[C@@H]1C=C[C@H](CC(=O)NCc2cc(F)cc(F)c2)O[C@@H]1CO returned Vaccinia stage -17 and Vaccinia stage Venus -10.
O=C(C[C@@H]1CC[C@H]2[C@@H](COC[C@H](O)CN2Cc2cc(F)cc(F)c2)O1)Nc1nccs1 was read as Vaccinia stage 3 and Vaccinia stage Venus 6.
CCC(=O)N[C@H]1CC[C@@H](CC(=O)NCc2ccccc2F)O[C@H]1CO was read as Vaccinia stage 23 and Vaccinia stage Venus 12.
For Cc1noc(C)c1NC(=O)N[C@H]1C=C[C@@H](CC(=O)Nc2ccc(-c3ccccc3)cc2)O[C@H]1CO the results were Vaccinia stage 4 and Vaccinia stage Venus 11.
Screening COc1ccc(S(=O)(=O)Nc2ccc3c(c2)C(=O)N([C@@H](C)CO)C[C@H](C)[C@@H](CN(C)Cc2ccncc2)OCCCC[C@H](C)O3)cc1 returned Vaccinia stage 19 and Vaccinia stage Venus -4.
CCN1[C@@H]2c3ccc(-c4cccc(F)c4)c(=O)n3C[C@@H]2[C@@H](CO)[C@@H]1C(=O)N[C@H](C)c1ccccc1 was read as Vaccinia stage -13 and Vaccinia stage Venus -2.
CCCN(C)C[C@H]1OCc2cnnn2CCCC(=O)N([C@H](C)CO)C[C@H]1C was read as Vaccinia stage -2 and Vaccinia stage Venus -6.
`COCC(=O)Nc1ccc2c(c1)OC[C@H](C)N(CCc1ccccc1)C[C@@H](C)[C@@H](OC)CN(C)C2=O` gave Vaccinia stage 5 and Vaccinia stage Venus 4.
Screening C[C@@H]1CN([C@@H](C)CO)C(=O)CCCn2nncc2CO[C@@H]1CN(C)S(=O)(=O)c1ccc(Oc2ccccc2)cc1 returned Vaccinia stage -14&-9 and Vaccinia stage Venus -20&-2.
CCCC(O)C#Cc1cnc2c(c1)C(=O)N([C@H](C)CO)C[C@H](C)[C@H](CN(C)S(=O)(=O)c1ccc(OC)cc1)O2 (stereo partly drawn) was read as Vaccinia stage 7 and Vaccinia stage Venus -10.
Screening Cc1noc(C)c1NC(=O)N(C)C[C@@H]1Oc2ccc(NC(=O)Nc3ccc(C(F)(F)F)cc3)cc2CC(=O)N([C@@H](C)CO)C[C@H]1C returned Vaccinia stage 1 and Vaccinia stage Venus -2.
Screening C[C@H]1CN([C@@H](C)CO)C(=O)c2cc(NS(C)(=O)=O)ccc2O[C@H]1CN(C)Cc1ccncc1 returned Vaccinia stage 2 and Vaccinia stage Venus -1.
`COc1ccccc1CNC(=O)C[C@H]1CC[C@H]2[C@@H](COC[C@@H](O)CN2C(=O)Nc2ccccc2)O1` gave Vaccinia stage 0 and Vaccinia stage Venus 0.
O=C(C[C@@H]1C[C@@H]2c3cc(NC(=O)C4CCC4)ccc3O[C@@H]2[C@H](CO)O1)NCCc1ccccc1 was read as Vaccinia stage 15 and Vaccinia stage Venus 14.
`O=C(Nc1cc(F)ccc1F)N1CC(=O)N2[C@H](C1)[C@H](c1ccc(-c3cccnc3)cc1)[C@@H]2CO` gave Vaccinia stage 18 and Vaccinia stage Venus 15.
`CCCNC(=O)N1[C@@H](CO)[C@@H]2c3ccccc3N(C)C[C@@H]21` gave Vaccinia stage 13 and Vaccinia stage Venus 3.
`O=C(Nc1ccc(F)cc1)N1CC(=O)N2[C@H](CO)[C@@H](c3ccc(-c4ccccc4)cc3)[C@@H]2C1` gave Vaccinia stage inconclusive.
For CC(C)CC#Cc1ccc([C@H]2[C@@H](CO)N3C(=O)CN(S(=O)(=O)c4ccccc4)C[C@@H]23)cc1 the results were Vaccinia stage -18 and Vaccinia stage Venus -23.
`COc1ccc(-c2cn(CC[C@H]3CC[C@H](NC(=O)NC(C)C)[C@H](CO)O3)nn2)cc1` gave Vaccinia stage 1 and Vaccinia stage Venus -9.
For N#C[C@@H]1[C@@H](c2ccccc2C2=CCCC2)[C@H](CO)N1C(=O)C1CC1 the results were Vaccinia stage -31 and Vaccinia stage Venus -19.
`CCCNC(=O)[C@H]1[C@H](CO)[C@H]2Cn3c(cccc3=O)[C@@H]1N2C(=O)C1CC1` gave Vaccinia stage 13 and Vaccinia stage Venus 8.
Screening C[C@@H]1CCCCO[C@@H](CN(C)C(=O)CCCN(C)C)[C@@H](C)CN([C@H](C)CO)C(=O)c2cc(NS(=O)(=O)c3ccc(F)cc3)ccc2O1 returned Vaccinia stage 3 and Vaccinia stage Venus 6.
O=C(C1CCCCC1)N1CC(=O)N2[C@@H](CO)[C@@H](c3ccc(C#CCc4ccccc4)cc3)[C@@H]2C1 was read as Vaccinia stage 13 and Vaccinia stage Venus 3.
For C[C@H]1CN([C@@H](C)CO)C(=O)c2cc(C#CC3(O)CCCC3)cnc2O[C@H]1CN(C)Cc1ccccn1 the results were Vaccinia stage 12 and Vaccinia stage Venus 9.
For COc1ccc2c3c(n(C)c2c1)[C@@H](CO)N(C(C)=O)CC31CN(C(=O)C2CCOCC2)C1 the results were Vaccinia stage 16 and Vaccinia stage Venus 12.
For COc1ccc(NC(=O)N(C)C[C@H]2Oc3ccc(NC(=O)NC(C)C)cc3CC(=O)N([C@@H](C)CO)C[C@H]2C)cc1 the results were Vaccinia stage 19 and Vaccinia stage Venus 13.
`C[C@H](CO)N1C[C@H](C)[C@@H](CN(C)C(=O)C2CC2)Oc2ncc(-c3cccc(C#N)c3)cc2C1=O` gave Vaccinia stage 35 and Vaccinia stage Venus 10.
COCC(=O)Nc1ccc2c(c1)C(=O)N(C)[C@@H]1CC[C@H](CC(=O)NCc3ccccc3F)O[C@H]1CO2 was read as Vaccinia stage -1 and Vaccinia stage Venus 0.
For C[C@@H]1CN([C@@H](C)CO)S(=O)(=O)c2ccc(-c3ccc(F)cc3)cc2O[C@@H]1CN(C)C(=O)Nc1ccccc1F the results were Vaccinia stage inconclusive.

Reprinted at random: 6 records from the list, in no set order.
O=C(C1CCCCC1)N1CC(=O)N2[C@@H](CO)[C@@H](c3ccc(C#CCc4ccccc4)cc3)[C@@H]2C1 was read as Vaccinia stage 13 and Vaccinia stage Venus 3.
For N#C[C@@H]1[C@@H](c2ccccc2C2=CCCC2)[C@H](CO)N1C(=O)C1CC1 the results were Vaccinia stage -31 and Vaccinia stage Venus -19.
`CCCNC(=O)[C@H]1[C@H](CO)[C@H]2Cn3c(cccc3=O)[C@@H]1N2C(=O)C1CC1` gave Vaccinia stage 13 and Vaccinia stage Venus 8.
`C[C@H](CO)N1C[C@H](C)[C@@H](CN(C)C(=O)C2CC2)Oc2ncc(-c3cccc(C#N)c3)cc2C1=O` gave Vaccinia stage 35 and Vaccinia stage Venus 10.
`O=C(Nc1ccc(F)cc1)N1CC(=O)N2[C@H](CO)[C@@H](c3ccc(-c4ccccc4)cc3)[C@@H]2C1` gave Vaccinia stage inconclusive.
`O=C(Nc1cc(F)ccc1F)N1CC(=O)N2[C@H](C1)[C@H](c1ccc(-c3cccnc3)cc1)[C@@H]2CO` gave Vaccinia stage 18 and Vaccinia stage Venus 15.

The main list resumes; the 2 compounds before the break are reprinted first.
COCC(=O)Nc1ccc2c(c1)C(=O)N(C)[C@@H]1CC[C@H](CC(=O)NCc3ccccc3F)O[C@H]1CO2 was read as Vaccinia stage -1 and Vaccinia stage Venus 0.
For C[C@@H]1CN([C@@H](C)CO)S(=O)(=O)c2ccc(-c3ccc(F)cc3)cc2O[C@@H]1CN(C)C(=O)Nc1ccccc1F the results were Vaccinia stage inconclusive.
For CS(=O)(=O)Nc1ccc2c(c1)[C@H]1C[C@@H](CC(=O)NCc3ccncc3)O[C@H](CO)[C@H]1O2 the results were Vaccinia stage 1 and Vaccinia stage Venus -7.
`COc1ccc(S(=O)(=O)Nc2cccc3c2O[C@H](CN(C)Cc2ccc4c(c2)OCO4)[C@@H](C)CN([C@@H](C)CO)C3=O)cc1` gave Vaccinia stage 20 and Vaccinia stage Venus -1.
Screening C[C@H](CO)N1C[C@H](C)[C@H](CN(C)C(=O)c2ccccc2)Oc2ncc(C3=CCCCC3)cc2C1=O returned Vaccinia stage -2 and Vaccinia stage Venus -7.
`CNC[C@@H]1Oc2c(NC(=O)Nc3c(C)noc3C)cccc2C(=O)N([C@@H](C)CO)C[C@@H]1C` gave Vaccinia stage 15 and Vaccinia stage Venus 18.
`O=C(C[C@H]1C=C[C@H](NS(=O)(=O)c2ccccc2)[C@@H](CO)O1)NCc1ccc(Cl)c(Cl)c1` gave Vaccinia stage -11 and Vaccinia stage Venus -7.
Screening C[C@@H]1CN([C@@H](C)CO)C(=O)c2cc(NC(=O)Cn3cnnn3)ccc2O[C@@H]1CN(C)S(=O)(=O)c1ccc(F)cc1 returned Vaccinia stage -10 and Vaccinia stage Venus 6.
`CCC(=O)Nc1ccc2c(c1)C(=O)N(C)C[C@H](OC)[C@@H](C)CN(Cc1ccccc1F)[C@H](C)CO2` gave Vaccinia stage -18 and Vaccinia stage Venus -7.
`CN(C)C(=O)c1cccc(-c2ccccc2[C@@H]2[C@H](C#N)N(C(=O)C3CCC3)[C@H]2CO)c1` gave Vaccinia stage 2 and Vaccinia stage Venus -3.
CC=Cc1ccc2n(c1=O)C[C@@H]1[C@@H](CO)[C@H](C(=O)NCCC)[C@H]2N1C(=O)Nc1cc(F)ccc1F (mixture of isomers) was read as Vaccinia stage 0 and Vaccinia stage Venus -2.
`C[C@@H]1CN([C@@H](C)CO)C(=O)Cc2cc(NS(=O)(=O)c3ccc(F)cc3)ccc2O[C@@H]1CN(C)S(=O)(=O)c1ccccc1` gave Vaccinia stage -14 and Vaccinia stage Venus 5.
Screening C[C@@H]1CCCCO[C@H](CN(C)Cc2ccc3c(c2)OCO3)[C@H](C)CN([C@H](C)CO)C(=O)c2cc(NC(=O)NC3CCCCC3)ccc2O1 returned Vaccinia stage inconclusive.
Cc1noc(C)c1NC(=O)Nc1ccc2c(c1)C(=O)N([C@H](C)CO)C[C@H](C)[C@H](CN(C)Cc1ccc(C(=O)Nc3ccccc3N)cc1)O2 was read as Vaccinia stage 16 and Vaccinia stage Venus 8.
Screening COCC(=O)Nc1ccc2c(c1)C(=O)N(C)[C@@H]1CC[C@H](CC(=O)NCC(F)(F)F)O[C@@H]1CO2 returned Vaccinia stage 20 and Vaccinia stage Venus 3.
For COCC(=O)N1CCCCN2[C@@H](CO)[C@@H](c3ccc(-c4ccc(OC)cc4)cc3)[C@@H]2C1 the results were Vaccinia stage 8 and Vaccinia stage Venus 5.
Screening COc1ccc2c3c([nH]c2c1)[C@H](CO)N(C(=O)CN(C)C)CC31CN(CC2CCCC2)C1 returned Vaccinia stage inconclusive.
C[C@H]1CCCCO[C@H](CN(C)C)[C@@H](C)CN([C@@H](C)CO)C(=O)c2cc(NS(=O)(=O)c3ccccc3)ccc2O1 was read as Vaccinia stage 4 and Vaccinia stage Venus 0.
Screening COc1cccc(NC(=O)N[C@@H]2CC[C@@H](CC(=O)NCc3ccncn3)O[C@@H]2CO)c1 returned Vaccinia stage 1 and Vaccinia stage Venus 6.
`CN(C)C(=O)C[C@@H]1C[C@H]2c3cc(NS(C)(=O)=O)ccc3O[C@H]2[C@@H](CO)O1` gave Vaccinia stage 6 and Vaccinia stage Venus 3.
`CO[C@@H]1CN(C)C(=O)c2ccc(NS(C)(=O)=O)cc2OC[C@H](C)N(C(=O)C2CCCCC2)C[C@H]1C` gave Vaccinia stage 11 and Vaccinia stage Venus 10.
For C[C@@H]1CN([C@@H](C)CO)C(=O)c2cc(NC(=O)Nc3ccc4c(c3)OCO4)ccc2O[C@@H]1CN(C)S(=O)(=O)c1cn(C)cn1 the results were Vaccinia stage 29 and Vaccinia stage Venus 19.
`COCC(=O)Nc1ccc2c(c1)OC[C@H](C)NC[C@H](C)[C@@H](OC)CN(C)C2=O` gave Vaccinia stage -8 and Vaccinia stage Venus 3.
Screening CCC(=O)N1CC[C@@H]2[C@H]1c1cc(-c3ccc(F)cc3)ccc1N(C)[C@H]2CO returned Vaccinia stage -25 and Vaccinia stage Venus -22.
For COc1ccc(S(=O)(=O)N[C@H]2C=C[C@@H](CC(=O)N3CCC(Cc4ccccc4)CC3)O[C@H]2CO)cc1 the results were Vaccinia stage inconclusive.
`C[C@@H](NC(=O)[C@@H]1[C@@H](CO)[C@@H]2Cn3c(ccc(-c4ccncc4)c3=O)[C@H]1N2C)c1ccccc1` gave Vaccinia stage 9 and Vaccinia stage Venus 1.
`N#C[C@@H]1[C@@H](c2ccc(-c3cccc(F)c3)cc2)[C@@H](CO)N1C(=O)NC1CCCC1` gave Vaccinia stage -13 and Vaccinia stage Venus -13.
Screening C[C@@H]1CN([C@@H](C)CO)S(=O)(=O)c2ccc(-c3cccc(C#N)c3)cc2O[C@@H]1CN(C)C(=O)c1ccc(F)cc1 returned Vaccinia stage -8&-17 and Vaccinia stage Venus -9&-9.
For CCCN1[C@H](C(=O)N(C)C)[C@@H](CO)[C@@H]2Cn3c(ccc(-c4cccc(F)c4)c3=O)[C@@H]21 the results were Vaccinia stage 12 and Vaccinia stage Venus 11.
CC(C)NC(=O)N[C@@H]1CC[C@H](CCNS(=O)(=O)c2ccc(Cl)cc2)O[C@@H]1CO was read as Vaccinia stage -5 and Vaccinia stage Venus -4.
For CCNC(=O)C[C@@H]1CC[C@H]2[C@@H](COc3ccc(NC(=O)C4CCOCC4)cc3C(=O)N2C)O1 the results were Vaccinia stage 4 and Vaccinia stage Venus 9.
`O=C(C[C@H]1C[C@@H]2c3cc(NC(=O)Cc4ccncc4)ccc3O[C@@H]2[C@H](CO)O1)NCc1ccc(-c2ccccc2)cc1` gave Vaccinia stage 2 and Vaccinia stage Venus 7.
For Cc1ccc(S(=O)(=O)NCC[C@@H]2CC[C@H](NC(=O)c3cccnc3)[C@@H](CO)O2)cc1 the results were Vaccinia stage 9 and Vaccinia stage Venus 6.
`Cc1noc(C)c1NC(=O)Nc1ccc2c(c1)C(=O)N([C@@H](C)CO)C[C@H](C)[C@H](CN(C)C(=O)NC1CCCCC1)OCCCC[C@@H](C)O2` gave Vaccinia stage 18 and Vaccinia stage Venus 6.
